Screens (PubChem BioAssay)
Ecoli rRNA inh – reduced GFP signal of wild-type E. coli, primary screen, bacterial rRNA inhibitor project, GFP/RFP fluorescence, OD600, single point. E. coli WT GFP vs humanized-ribosome RFP mutants, 24 h; active compounds read low; DMSO median 0, no signal -100. GFP signal change (wild-type ribosome), % (concentration not given with the values). actives 1.6% (n = 350,000). AID 720706, 2013;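 active means significant combined selectivity score with lowered wild-type GFP, culture density cut under 30%, mutant RFP and density less affected; inactive means any of these conditions unmet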; further: one replicate is shown; some compounds called inactive have numbers as strong as hits
MLL AF4-AF9 inh – inhibitors of AF4 peptide binding to AF9, primary screen, biochemical, AlphaScreen, biotin-AF4 peptide, FLAG-AF9, single point | Protein AF-9 (Homo sapiens), P42568 | inhibition, % at 10 µM | actives 0.47% (n = 350,000);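 active means every replicate reaching a set inhibition limit, whatever the replicate mean, cut at about 25% in these data; inconclusive means mean inhibition reaches that limit but some replicates miss it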;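 further: 0% = plate neutral control median and 100% = total signal loss; the record names both 10 and 1 µM as test concentration; the first replicate is given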
Target sequence (P42568 whole entry, looked up): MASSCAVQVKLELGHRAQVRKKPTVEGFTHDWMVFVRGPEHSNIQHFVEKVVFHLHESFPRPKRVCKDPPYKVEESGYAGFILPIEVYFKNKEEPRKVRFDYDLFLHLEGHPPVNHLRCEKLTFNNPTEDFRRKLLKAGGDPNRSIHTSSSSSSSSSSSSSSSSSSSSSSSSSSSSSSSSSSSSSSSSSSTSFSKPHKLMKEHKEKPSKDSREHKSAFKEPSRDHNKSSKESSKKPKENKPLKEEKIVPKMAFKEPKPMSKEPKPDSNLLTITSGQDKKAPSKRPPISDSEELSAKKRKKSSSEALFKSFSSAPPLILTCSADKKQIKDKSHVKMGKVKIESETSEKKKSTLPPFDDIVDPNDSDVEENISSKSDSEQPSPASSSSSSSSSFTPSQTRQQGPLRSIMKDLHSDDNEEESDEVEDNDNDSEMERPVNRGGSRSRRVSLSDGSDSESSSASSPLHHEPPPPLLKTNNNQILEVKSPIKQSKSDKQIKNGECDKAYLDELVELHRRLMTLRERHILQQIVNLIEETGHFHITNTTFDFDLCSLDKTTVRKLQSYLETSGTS
E coli growth – E. coli growth inhibition, primary screen, OD600; Escherichia coli growth, 23 h; active compounds read low; OD600 absorbance (test concentration not listed); actives 0.21% (n = 330,000); AID 1053175, 2014;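 active means OD600 absorbance below the run mean of sample wells minus 3.6 SD, in any replicate, cut at about 0.56 in these data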;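 further: stock transfer was 300 nL into about 60 µL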
FGF22 binding – binders of human FGF22 protein, primary screen, FGF22 synaptogenesis inhibitor project, biophysical, thermal shift, single point; calls only at 9.99 µM; actives 1.5% (n = 340,000); Fibroblast growth factor 22 (Homo sapiens), Q9HCT0; recombinant FGF22 thermal shift, SYPRO orange fluorescence; percent of sucrose octasulfate shift, DMSO zero;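 active means melting point raised past a set limit in the mean and every replicate; inconclusive means no clear call; three in four hits are not shown here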
Target sequence (Q9HCT0 whole entry, looked up): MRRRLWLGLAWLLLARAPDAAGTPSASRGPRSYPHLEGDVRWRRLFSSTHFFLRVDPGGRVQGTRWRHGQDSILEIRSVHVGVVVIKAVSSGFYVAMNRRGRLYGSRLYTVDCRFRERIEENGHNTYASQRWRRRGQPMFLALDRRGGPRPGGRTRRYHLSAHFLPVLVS
HNF4A DNA FP – change in binding of human HNF4A to DNA, primary screen, biochemical, fluorescence polarization, FITC-DNA. Hepatocyte nuclear factor 4-alpha (Homo sapiens), P41235. 1 h. activity change, % at 10 µM. actives 0.3% (n = 360,000); in the data active means activity change above about 30%, passing the limit was not always enough;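 further: controls were the assay level and a saturating level of protein; the project sought stronger binding though the title names inhibitors; some compounds called inactive have numbers as strong as hits; positive values seem to mean higher polarization but the record does not say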
Vif A3G – inhibitors of Vif binding to APOBEC3G peptide, primary screen, biochemical, TR-FRET, GST-Vif 1-94, biotin-A3G peptide, dose response retest (AID 1117319). TR-FRET GST-Vif / biotin-A3G peptide binding; higher % means a stronger effect; test concentration not given here; strong numbers were not always called active. one-dose inhibition, %; IC50 in µM for titrated hits. actives 0.57% (n = 260,000). Virion infectivity factor (Human immunodeficiency virus type 1 group M subtype B (isolate …;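 active means above the screen mean plus three standard deviations and confirmed in dose response; inconclusive means results disagree or hit not tested in dose response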;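 further: Vif residues 1-94 fused to GST binding biotinylated APOBEC3G peptide 110-148; 0% = full assay without inhibitor and 100% = GST in place of GST-Vif; retest series ran down from 100 µM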
ALR H2O2 inh – inhibitors of human ALR sulfhydryl oxidase, primary screen, biochemical, H2O2 detection, HRP-luminol luminescence, single point | inhibition, % (no concentration beside the values) | FAD-linked sulfhydryl oxidase ALR (Homo sapiens), P55789 | purified ALR, DTT oxidation | actives 3.8% (n = 290,000);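 active means mean and each replicate at 75% or more; inconclusive means only one of the two met; inactive means neither met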;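 further: stock transfer was 7.5 nL into about 7.5 µL; 0% = neutral wells and 100% = wells with inactivated enzyme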
Target sequence (P55789 whole entry, looked up): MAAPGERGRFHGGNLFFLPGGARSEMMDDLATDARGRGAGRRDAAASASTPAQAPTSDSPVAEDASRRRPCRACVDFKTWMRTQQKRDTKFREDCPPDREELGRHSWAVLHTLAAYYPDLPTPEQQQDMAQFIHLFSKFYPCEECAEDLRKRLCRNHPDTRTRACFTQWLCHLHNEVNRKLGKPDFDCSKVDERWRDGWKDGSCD
Ecoli rRNA inh OD600 – also measured in Ecoli rRNA inh; calls as there; OD600 change, %; measured here: OD600 growth;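 optical density of the mix in the first replicate; 0 = DMSO median and -100 = no signal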
Ecoli rRNA inh RFP – further read-out of Ecoli rRNA inh, marked with its call; RFP signal change, %; measured here: RFP humanized mutant strains;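 first replicate; 0 = DMSO median and -100 = no signal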
* hit, by the source's call; i = inactive; ? = inconclusive; / = no result given; & = joins results of further samples.

SMILES | Ecoli rRNA inh | Ecoli rRNA inh OD600 | Ecoli rRNA inh RFP | MLL AF4-AF9 inh | E coli growth | FGF22 binding | HNF4A DNA FP | Vif A3G | ALR H2O2 inh
CC(C)CC1C(=O)N(Cc2cn(CCC3OCCCO3)nn2)CCS(=O)(=O)N1Cc1ccc(-c2ccc(Cl)c(Cl)c2)cc1 (centres undefined) | 4 | -1 | -4.1 | 1.7 | / | / | -2.8 | / | /
CCCCNC(=O)COC(=O)c1ccc(NS(=O)(=O)c2ccc3c(c2)OCCO3)cc1 | / | / | / | / | 0.67 | / | 1.2 | 1% | -1
O=c1c2ccccc2cnn1-c1ccc2ccccc2c1 | / | / | / | / | 0.64 | / | 0.0 | -13% | -8
CCNC(=O)C1CCCN(C(=O)c2ccc(F)c(Cl)c2)CC1 (centres undefined) | 3 | 10 | -4.7 | -3.3 | / | i | -1.9 | / | /
CCOCCCNC(=O)C1CCN(Cc2ccc(OCc3ccccc3)c(OC)c2)CC1 | 2 | 1 | 2.4 | 1.5 | 0.72 | i | 5.7 | / | -6
CCc1ccc(NC(=O)N2CCN(c3ccc(F)cc3)CC2)cc1 | -16 | -9 | -6.6 | -1.2 | 0.68 | i | 1.1 | 6% | /
CCOC(=O)c1c(N)sc(C(=O)N(CC)CC)c1C | 2 | -4 | 0.4 | -1.1 | 0.69 | i | -5.6 | -9% | 96*
Cc1ccc(CS(=O)(=O)CCC(=O)NCCCN2CCCC2)cc1 | / | / | / | / | 0.69 | / | -0.2 | 10% | -21
CCOC(=O)c1ccc(NS(=O)(=O)CC)cc1 | / | / | / | / | 0.72 | / | 1.3 | ? | /
Cc1cc(C)cc(OCC(=O)Nc2ccccc2C(=O)N2CCOCC2)c1 | 2 | 1 | -2.5 | -0.6 | / | i | -7.8 | / | -1
CCOC(=O)C1CCN(C(=O)C(CCSC)NC(=O)COc2ccccc2)CC1 (centres undefined) | 1 | 7 | 1.5 | -6.9 | 0.69 | i | 0.0 | -11% | 0
Cc1ccc(S(=O)(=O)NCC2CCC(C(=O)NCCCN3CCCC3=O)CC2)cc1 (centres undefined) | 6 | 14 | -0.8 | 2.7 | 0.7 | i | -0.9 | / | 1

Retrieved one by one from the list above (7):
SMILES | Ecoli rRNA inh | Ecoli rRNA inh OD600 | Ecoli rRNA inh RFP | MLL AF4-AF9 inh | E coli growth | FGF22 binding | HNF4A DNA FP | Vif A3G | ALR H2O2 inh
CCOC(=O)c1c(N)sc(C(=O)N(CC)CC)c1C | 2 | -4 | 0.4 | -1.1 | 0.69 | i | -5.6 | -9% | 96*
O=c1c2ccccc2cnn1-c1ccc2ccccc2c1 | / | / | / | / | 0.64 | / | 0.0 | -13% | -8
CCOC(=O)c1ccc(NS(=O)(=O)CC)cc1 | / | / | / | / | 0.72 | / | 1.3 | ? | /
CC(C)CC1C(=O)N(Cc2cn(CCC3OCCCO3)nn2)CCS(=O)(=O)N1Cc1ccc(-c2ccc(Cl)c(Cl)c2)cc1 (centres undefined) | 4 | -1 | -4.1 | 1.7 | / | / | -2.8 | / | /
Cc1cc(C)cc(OCC(=O)Nc2ccccc2C(=O)N2CCOCC2)c1 | 2 | 1 | -2.5 | -0.6 | / | i | -7.8 | / | -1
CCOC(=O)C1CCN(C(=O)C(CCSC)NC(=O)COc2ccccc2)CC1 (centres undefined) | 1 | 7 | 1.5 | -6.9 | 0.69 | i | 0.0 | -11% | 0
CCCCNC(=O)COC(=O)c1ccc(NS(=O)(=O)c2ccc3c(c2)OCCO3)cc1 | / | / | / | / | 0.67 | / | 1.2 | 1% | -1

The results go on:
SMILES | Ecoli rRNA inh | Ecoli rRNA inh OD600 | Ecoli rRNA inh RFP | MLL AF4-AF9 inh | E coli growth | FGF22 binding | HNF4A DNA FP | Vif A3G | ALR H2O2 inh
CC1(CCc2ccccc2)NC(=O)N(Cc2nnc(-c3ccccc3Br)o2)C1=O (centres undefined) | / | / | / | / | 0.81 | / | 0.1 | 0% | -3
Cc1nc2c(nnn2Cc2ccccc2)c(=O)[nH]1 | 10 | 6 | 2.5 | -1.2 | 0.63 | i | -3.9 | 3% | -7
Cc1ccc(Nc2ncc3c(n2)CC(C)CC3=O)c(C)c1 (centres undefined) | 7 | 4 | -1.6 | 0.3 | 0.6 | i | -1.3 | -3% | -16
Cc1c(C(=O)N2CC(C)OC(C)C2)sc2nc(-c3ccccc3)cn12 (centres undefined) | / | / | / | / | 0.67 | / | / | 9% | -15
C[C@H]1CN([C@@H](C)CO)S(=O)(=O)c2ccc(C#Cc3ccccc3F)cc2O[C@@H]1CN(C)C(=O)c1ccc2c(c1)OCO2 | -2 | 4 | 7.1 | 0.1 | / | i | / | / | /
C[C@@H]1CN([C@H](C)CO)C(=O)c2cc(NC(=O)Nc3ccc4c(c3)OCO4)ccc2O[C@@H](C)CCCCO[C@H]1CN(C)Cc1ccc(Cl)c(Cl)c1 | -3 | 2 | -4.0 | 6.5 | / | i | / | / | /
COc1ccc(C(=O)NC23CC4CC(CC(C4)C2)C3)cc1 | 12 | 15 | 0.1 | -11 | 0.66 | i | -1.4 | -17% | -2
CCCCCCCc1nc2nc(C)c(Br)c(=O)n2[nH]1 | -24 | -20 | -0.2 | -9.2 | 0.68 | i | -5.5 | -6% | 7
CCCN(C(=O)CSCc1ccc(Cl)cc1)c1c(N)n(Cc2ccccc2)c(=O)[nH]c1=O | 3 | 18 | 1.8 | -6.1 | / | i | -2.2 | / | /
Cn1cnc(NCc2ccccc2)c1[N+](=O)[O-] | 8 | 1 | 1.6 | -2.2 | 0.65 | i | -2.5 | 6% | -8
COc1cccc(S(=O)(=O)N[C@H]2CC[C@@H](CC(=O)NCc3ccc(Cl)cc3)O[C@@H]2CO)c1 | -7 | -6 | -1.1 | -1.0 | / | i | / | / | /
Cc1ccccc1Nc1nnc(SCC2CCCCO2)s1 (centres undefined) | -22* | -16* | -1.8* | -2.7 | 0.64 | i | -1.6 | -11% | -5
Cc1ccc(C(=O)N2CC(=O)Nc3ccc(F)cc3C2c2ccc(F)cc2)cc1 (centres undefined) | -5 | -5 | 2.4 | 2.1 | 0.64 | i | -4.0 | 5% | -29
Cn1nc(-c2ccc(Cl)cc2)c2cc(C(=O)N3CCCC3)sc21 | 3 | 5 | 2.2 | -56 | 0.77 | i | -1.7 | -8% | 19
COc1ccc(S(=O)(=O)N(C)C[C@@H]2OCCCC[C@@H](C)Oc3ccc(N(C)C)cc3C(=O)N([C@H](C)CO)C[C@H]2C)cc1 | -5 | -6 | -0.2 | 15 | / | i | / | / | /
CCOC(=O)c1cnn(-c2nc(CC)nc3sc4c(c23)CCC4)c1N | / | / | / | / | 0.77 | / | -1.4 | 5% | -5
CC(C)c1cccc(C(C)C)c1NC(=O)COC(=O)c1ccc2c(c1)S(=O)(=O)c1ccccc1C2=O | / | / | / | / | 0.72 | / | -4.9 | / | 0
COC(=O)c1cccc(NC(=O)c2cccs2)c1C | / | / | / | / | 0.66 | / | 13 | 1% | -4
Cc1ccc(N2C(=O)SC(N(CC(=O)O)c3ccc(C)cc3)C2=O)cc1 (centres undefined) | -19* | -12* | 8.1* | -1.3 | / | i | 0.8 | 3% | 1
COc1cc(/C=C(\C#N)C(=O)Nc2cccc(C(=O)O)c2)ccc1OCc1ccc(C)cc1 | 1 | 9 | 0.7 | -2.6 | 0.64 | i | -0.6 | / | 5
CC(C)c1ccc(/C=N/NC(=O)c2c(Cl)cnn2C)cc1 | / | / | / | / | / | / | -4.5 | 1% | 5
Cc1noc(C)c1NC(=O)Nc1cccc2c1O[C@@H](CN(C)CC1CCCCC1)[C@@H](C)CN([C@@H](C)CO)C2=O | 3 | 14 | 0.3 | -1.3 | / | i | / | / | /
CCOC(=O)c1c(CSc2ccccc2)n(C)c2cc(Br)c(O)c(CN(C)C)c12 | -42 | -35 | 6.6 | 15 | 0.63 | i | -1.3 | -7% | 84*
COc1ccc(NS(=O)(=O)c2cccc(C(=O)N/N=C/c3ccc4c(c3)OCCO4)c2)cc1 | 19 | 8 | 0.6 | -0.4 | / | i | 1.1 | / | -7
N#C[C@@H]1[C@@H](c2ccc(-c3ccc(F)cc3)cc2)[C@@H](CO)N1S(=O)(=O)Cc1ccccc1 | -21 | -52 | -0.3 | 0.2 | / | i | / | / | /
C/C=C/c1ccc2c(c1)O[C@H](CN(C)C(=O)COC)[C@@H](C)CN([C@H](C)CO)S2(=O)=O | -3 | -2 | -3.9 | 0.4 | / | i | / | / | /
CCc1nnc(NC(=O)c2ccc(S(=O)(=O)N3CCN(Cc4ccccc4)CC3)cc2)s1 | / | / | / | / | 0.69 | / | -1.8 | -2%&0% | -5
CC(=O)Oc1ccccc1Cn1c(C)c(C(=O)NCc2ccc(Cl)c(Cl)c2)sc1=O | -3 | -23 | 12 | 12 | / | i | -0.5 | / | /
CCOc1ncccc1C(=O)Nc1ccc2c(c1)OCCO2 | -7 | -21 | -2.4 | -2.3 | 0.7 | i | 2.5 | -9% | 4
COCC(=O)Nc1ccc2c(c1)C(=O)N(C)C[C@H](OC)[C@H](C)CN(Cc1ccccc1F)[C@@H](C)CO2 | -4 | -5 | 1.1 | 5.8 | / | i | / | / | /
COc1ccc2oc(C(=O)Nc3nc4ccccc4[nH]3)c(C)c2c1 | -6 | 6 | 2.2 | 6.7 | 0.66 | i | 2.2 | -4% | -7
CCOc1ccccc1C(=O)Nc1ccc(S(=O)(=O)Nc2cc(OC)nc(OC)n2)cc1 | 4 | 8 | -3.9 | -1.4 | 0.67 | i | -0.1 | / | -1
CCOc1ccc(NC(=O)COC(=O)CCCc2c[nH]c3ccccc23)cc1 | / | / | / | / | 0.71 | / | -3.9 | -6% | 42
NC(=O)C1(N2CCCCC2)CCN(c2ccc3nnc(-c4ccccc4)n3n2)CC1 | -6 | -4 | 1.4 | -2.0 | 0.7 | i | 1.5 | -1% | -5
CCC(=O)NC(NC(=S)Nc1ccccc1Br)C(Cl)(Cl)Cl (centres undefined) | / | / | / | -14 | 0.69 | i | -0.6 | -5% | -4
Cn1cnc(S(=O)(=O)N2CCN(c3cccc(Cl)c3)CC2)c1 | 0 | -1 | 0.0 | -1.9 | 0.66 | i | -7.7 | / | 6
CCOC(=O)c1cnc2ccc(C(=O)OC)cc2c1Nc1ccc(C(=O)O)cc1 | 2 | 7 | 3.8 | 2.1 | 0.69 | i | 1.2 | -11% | -10
CCC(=O)N1C[C@@H](C)[C@@H](OC)CN(C)C(=O)c2cc(NS(=O)(=O)CC)ccc2OC[C@@H]1C | -1 | -3 | -1.1 | -1.6 | / | i | / | / | /
N#CC(c1ccc(Cl)cc1)N1CCOCC1 (centres undefined) | 5 | 3 | -1.1 | -1.5 | 0.69 | / | -1.1 | -9% | 10
CC(=O)c1cccc(NC(=O)C(C)OC(=O)c2ccc(Br)o2)c1 (centres undefined) | -22 | -23 | -2.2 | -9.1 | 0.71 | i | 5.4 | -1% | -7
Clc1cc2c(c(CSc3nc4ccccc4n4cccc34)c1)OCOC2 | 8 | 5 | 3.4 | -0.3 | 0.72 | i | 4.8 | -15% | 27
COc1ccc(OCC(=O)Nc2ccccc2OC(F)F)cc1 | / | / | / | / | 0.69 | / | 5.8 | 6% | 1

The list is partial, so the mix of outcomes need not match the whole.
